Screening data: PubChem, ICCB-Longwood Screening Facility, Harvard Medical School
CapD inh: blocks the Bacillus anthracis CapD enzyme; purified CapD enzyme, fluorescence intensity read-out; hits give low values; some hits fall short of the stated cut; z-score (no concentration beside the values); actives 0.23% (n = 140,000); AID 492967;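 active = z-score under -4 in either of two replicates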;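 also: stock transfer was 100 nL into about 40 µL; score is relative to mean and spread of the plate; one replicate is shown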
AID504770: E. coli YBA685 growth inhibition, screen for V. cholerae RctB inhibitors; E. coli YBA685 rctB-dependent plasmid, OD600 growth, 3 h; hits give low values; z-score (no concentration beside the values); actives 0.27% (n = 130,000); AID 504770;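 active = z-score under -2 on both plates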;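 also: wells of about 30 µL received 100 nL stock; score is relative to mean and SD of the test wells; the first replicate is given; strong numbers were not always called active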
Starred values were filed as active, the others as inactive; nt = no result given. These rows are one share of the data (hit frequency here may not be typical).

Second line of a record – CapD inh, AID504770
N#Cc1ccsc1NC(=O)c1cc(Cl)sc1Cl
    nt, -1.2
CC(C)(C)c1ccc(C(=O)N/N=C/c2cc(Cl)cc(Cl)c2O)cc1
    0.39, nt
Cc1cc2nc3s/c(=C/c4cc5c(cc4Br)OCO5)c(=O)n3c2cc1C
    -0.005, nt
Oc1ccccc1C1Nc2cccc3cccc(c23)N1
    32.9, nt
Fc1cccc(F)c1-c1nnc(-c2ccccc2OC(F)(F)F)o1
    0.94, -0.6
O=C(Nc1ccc(OCc2ccccc2)cc1)NC1Cc2ccccc2C1
    -0.17, nt
CSc1nc2ccc(NC(=O)c3ccccc3-n3cnnn3)cc2s1
    nt, 1.95
CC1CC(C)CN(S(=O)(=O)c2ccc3[nH]cc(C(=O)N4CCC5(CC4)OCCO5)c(=O)c3c2)C1 (centres undefined)
    -0.465, -0.6
CCCOC(=O)C1=C(C)NC2(O)c3ccccc3C(=O)C12O (centres undefined)
    -0.37, nt
Cc1nc(N)nc(C)c1Cc1ccccc1
    0.045, 2.1
N#CCc1nc2ccccc2s1
    -0.11, nt
N#C/C(=C\c1cccnc1)C(N)=S
    0.395, -1
CCOc1cc(C2C(C#N)=C(N)Oc3n[nH]c(-c4ccccc4)c32)cc([N+](=O)[O-])c1O (centres undefined)
    -1.11, nt
Cc1ccc(C(=O)N2CCN(C(=O)c3ccccc3)C2)cc1
    -0.815, -0.5
CSc1cccc(NS(=O)(=O)c2ccc3c(c2)n(C)c(=O)c(=O)n3C)c1
    1.12, -0.2
C=CCNC(=O)c1ccccc1SC
    -0.345, 1.65
COc1ccc(OC)c(NC(=O)C(CC(=O)O)Cc2ccc(C)cc2)c1 (centres undefined)
    0.77, 0.3
N#CC(C#N)=NNc1ccccc1
    nt, -3.65*
CC(C)NC(=O)c1oc2ccccc2c1CSC1=NCCS1
    nt, -0.2
Cc1ccccc1CS/C(Nc1ccccc1)=C(\C#N)C(=O)Nc1ccccc1C
    -0.035, nt

Part of the list above in a different format.
mol	CapD inh	AID504770
N#C/C(=C\c1cccnc1)C(N)=S	0.395	-1
CC(C)NC(=O)c1oc2ccccc2c1CSC1=NCCS1	nt	-0.2

New compounds follow
Second line of a record – CapD inh, AID504770
CCC(C)NC(=O)CSC1=Nc2ccccc2C2=NC(c3ccccc3)C(=O)N12 (centres undefined)
    24.3, -1.05
CCN1CCN(CCCN)CC1
    nt, -0.35
CC(NC(=O)COc1ccc(-c2nnco2)cc1)c1ccc(Cl)cc1Cl (centres undefined)
    nt, -0.2
COc1ccc(N(C(=O)c2ccccc2)S(=O)(=O)c2cccc3cccnc23)cc1
    0.06, 1.25
N#CC1(C#N)[C@H](c2ccccc2)[C@@H](C(=O)c2ccccc2)N2C=Cc3ccccc3[C@@H]21
    -0.25, nt
CC(C)C(NC(N)=O)C(=O)Nc1cccc2ncccc12 (centres undefined)
    nt, -0.45
Cc1c(Cc2c(Cl)cccc2Cl)c(=O)ccn1-c1ccc(C(C)(C)C)cc1
    -0.51, nt
N=c1sccn1CC(=O)NCCc1ccc(Cl)cc1Cl
    nt, 0.7
CCN1CCN(c2ccc(N3CCN(C(=O)c4ccc(C(F)(F)F)cc4)CC3)nn2)CC1
    nt, -1.2
CC(C)(C)NCC(C)(O)c1ccc(Br)cc1 (centres undefined)
    0.225, -0.35

7 entries drawn at random from those above, as already listed:
Second line of a record – CapD inh, AID504770
CCC(C)NC(=O)CSC1=Nc2ccccc2C2=NC(c3ccccc3)C(=O)N12 (centres undefined)
    24.3, -1.05
CCN1CCN(c2ccc(N3CCN(C(=O)c4ccc(C(F)(F)F)cc4)CC3)nn2)CC1
    nt, -1.2
CCN1CCN(CCCN)CC1
    nt, -0.35
CC(C)(C)NCC(C)(O)c1ccc(Br)cc1 (centres undefined)
    0.225, -0.35
N#CC1(C#N)[C@H](c2ccccc2)[C@@H](C(=O)c2ccccc2)N2C=Cc3ccccc3[C@@H]21
    -0.25, nt
CC(NC(=O)COc1ccc(-c2nnco2)cc1)c1ccc(Cl)cc1Cl (centres undefined)
    nt, -0.2
N=c1sccn1CC(=O)NCCc1ccc(Cl)cc1Cl
    nt, 0.7

Other compounds follow:
Second line of a record – CapD inh, AID504770
Nc1nc(CSc2nnnn2-c2ccc(Cl)cc2)nc(N2CCOCC2)n1
    -0.105, nt
O=C(NC1CC1)c1cncc(Br)c1
    -0.315, -1.25
Cc1ccc(-c2csc(N/N=C/c3ccco3)n2)cc1
    nt, 0.6
Cc1c(NC(=O)CN(c2cc(C(F)(F)F)ccc2Cl)S(=O)(=O)c2ccccc2)c(=O)n(-c2ccccc2)n1C
    -0.38, nt
CCCCn1c(CCCN2C(=O)c3ccccc3C2=O)nc2ccccc2c1=O
    nt, -0.45
O=C(CSc1nc2ccc(N=Cc3ccccc3O)cc2s1)NCCOc1ccccc1
    -0.4, -0.4
O=C(Nc1ccccc1)N(Cc1ccc(Cl)cc1)CC(O)C(F)(F)F (centres undefined)
    -0.385, nt
O=C(Nc1ccccc1C(=O)O)c1ccc(Cl)cc1
    0.2, nt
C[n+]1ccc(/C=C/c2ccccc2F)c2ccccc21
    0.085, -0.35
Cc1ccc2sc(NC(=O)/C=C/C(=O)O)nc2c1
    nt, -0.75
COC(=O)Cc1cc(=O)n2[nH]c(C(F)(F)F)c(-c3ccc(Br)cc3)c2n1
    60.9, 0.65
CCOC(=O)c1c(-c2ccc(Br)cc2)csc1/N=C/c1c(C)[nH]n(-c2ccccc2)c1=O
    -0.035, nt
COc1cc(NC(=O)CSC)cc(OC)c1
    0.37, -1.1
CC1CCC(NC(=O)C2CCCN2S(=O)(=O)c2ccc3nc(-c4ccccc4)[nH]c3c2)CC1 (centres undefined)
    1.38, 0.6
O=C(COc1ccc(-n2cnnn2)cc1)NC(=O)NCc1ccccc1
    nt, -0.55
N=C1c2ccccc2C(=O)C1c1ccccc1 (centres undefined)
    -0.56, 2.1
c1ccc(Nc2ncnc3sc4c(c23)CCCC4)cc1
    -0.36, -0.2
COc1ccc(-n2c(=S)[nH]c3sc4c(c3c2=O)CCC(C(C)(C)C)C4)cc1 (centres undefined)
    0.27, nt
CN(C)C(=S)SCC(=O)Nc1ccccc1
    -0.18, -0.5
CC1CC2(C)Oc3ccccc3C3OCC1(CO)C(C)C32 (centres undefined)
    -0.76, 2.2
COc1ccc2ccccc2c1C=C1C(=O)OC2(CCCC2)OC1=O
    0.29, -0.1
Cc1cc(Cl)ccc1OCC(=O)N1N=C(C(F)F)CC1(O)C(F)F (centres undefined)
    -0.09, -0.6
CCC1C(=O)N=C(SCc2ccccc2)NC1=O (centres undefined)
    -0.1, nt
Nn1cc(-c2ccccc2)nc1SC(F)F
    nt, -1.8
Brc1ccc(-c2cn3ccsc3n2)cc1
    -0.03, -0.9
CN(Cc1ccccc1)C(=O)CN(C1CCCCC1)S(C)(=O)=O
    -0.08, -0.25
CSc1ccccc1NS(=O)(=O)c1ccccc1
    -0.66, 2.55
CNCC(O)COc1cccc(OC)c1 (centres undefined)
    -0.205, -0.55
Cc1cc2ccccc2c(=O)n1CC(=O)N1CCCCC1
    0.85, nt
CCc1ccc(NC(=O)Cc2cccs2)cc1
    -0.27, -1.05
N#CC1=C(N)N2C(=C(C#N)C1c1c(F)cccc1Cl)Sc1ccccc12 (centres undefined)
    0.595, nt
CCOC(=O)Cn1nc(C(F)(F)F)c(Cl)c1C
    0.08, -1.05
CN(C)S(=O)(=O)c1ccc2oc3nnc(SCc4ccccc4)n3c2c1
    nt, -0.1
O=c1nc2s/c(=C\c3ccco3)c(=O)n2nc1Cc1ccccc1
    -1.25, -0.8
CCOc1ccc(C(=O)N2CCCCC2)cc1
    0.195, -0.95
COc1ccc(Nc2nc(=O)[nH]nc2C)cc1
    -0.895, -0.4
CCOC(=O)c1cnc(-c2ccccc2)nc1Sc1ccc(OC)cc1
    0.55, nt
COc1ccc(N2C(=O)C(N3C(=O)c4ccc([N+](=O)[O-])cc4C3=O)C2c2ccc(F)cc2)cc1Cl (centres undefined)
    -0.19, nt
COc1cccc(NNC(=O)C(O)(c2ccc(Cl)cc2)c2ccc(Cl)cc2)c1
    0.435, nt
CCOC(=O)c1ccc(S(N)(=O)=O)o1
    0.105, 0.45
Cc1cc(C)c(NC2=NC(CO)(CO)CS2)c(C)c1
    -1.57, 2.45
O=C(Cc1n[nH]c(=O)c2ccccc12)NCCO
    -0.08, nt
COc1cc(OC)nc(OC(Cc2cnccn2)c2ccccc2)n1 (centres undefined)
    -0.255, nt
O=C1N/C(=N\c2ccccn2)SC1Cc1cc(Cl)ccc1Cl (centres undefined)
    -0.185, nt
O=c1[nH]c(O)c(C=NCCSCc2cccs2)c(=O)[nH]1
    nt, 0.8
O=C(c1ccc2nc(/C=C(\O)c3ccc(Cl)cc3)c(=O)[nH]c2c1)N1CCN(c2ccco2)CC1
    -0.58, -0.3
COc1ccc(Nc2oc(-c3ccccc3)nc2C#N)cc1
    41.3, 0.95
CCCc1cc(C(=O)Nc2cccc(C(F)(F)F)c2)no1
    0.89, -0.6
CCc1ccc(NC(=O)c2cnc(SC)nc2C)cc1
    -0.11, -0.2
CCOC(=O)c1c(C)n(-c2ccccc2)c2ccc(OC(=O)c3ccc(C(=O)c4ccccc4)cc3)cc12
    1.45, nt

(listing goes on)
Second line of a record – CapD inh, AID504770
CC(C)NC(=O)COc1ccc(S(=O)(=O)N(C)Cc2ccccc2)cc1
    -0.17, 0.05
Cn1sc(=O)c2ccc(S(=O)(=O)NCCc3ccncc3)cc21
    11.2, -2.55*
COc1cccc(C2C3CN(C(C)=O)CC=C3C(C#N)=C(N)C2(C#N)C#N)c1 (centres undefined)
    nt, -0.8
O=C(CCc1ccccc1)Nc1ccc2c(c1)C(=O)OC2
    0.835, 2.45
N#CC1=C(N)Oc2c3c(c4ccccc4c2C1c1ccc(F)cc1)C(c1ccc(F)cc1)C(C#N)=C(N)O3 (centres undefined)
    0.02, nt
COCC(C)n1c(COc2ccccc2F)nn(CN2CCN(c3ccc(O)cc3)CC2)c1=S (centres undefined)
    nt, 1.25
O=C1OCC(c2ccccc2)=C1c1ccc(S(=O)(=O)N2CCOCC2)s1
    nt, -0.45
N/C(COc1cccc(C(F)(F)F)c1)=N\O
    0.25, -0.05
CCc1ccccc1N/C=C(\C#N)c1nc2ccccc2[nH]1
    nt, 1.15
COC(=O)CN(c1ccc(C(C)C)cc1)S(C)(=O)=O
    -0.02, 0.85
COc1cc(OC)cc(N2CCN(C(=O)OCc3ccc(-c4ccccc4)cc3)CC2)c1
    0.575, nt
CCN(CC)S(=O)(=O)c1ccc(C(=O)N2CCc3ccccc32)cc1
    nt, -1.15
COc1cc(/C=N/S(=O)(=O)CCc2ccccc2)ccc1O
    -0.705, 0.25
CCOc1ccc2c(c1)C(=NN)c1cc(OCC)ccc1-2
    -0.315, nt
CCCC(=O)Nc1ccc(Br)cc1
    -0.165, -1.2
CCOC(=O)c1c(NC(=O)C(C)Sc2nnc(CNC(=O)c3ccc(OC)cc3)n2C)sc2c1CCCC2 (centres undefined)
    -0.655, nt
N#CCCn1c(SCC(=O)Nc2ccc(S(=O)(=O)N3CCCCC3)cc2)nc2ccccc21
    nt, 0.15
CN(Cc1nc2ccccc2c(=O)[nH]1)C(=O)COc1ccc2c(c1)CCC2
    nt, 1.5
CC1(C)CC(=O)C2=C(C1)OC(N)=C(C#N)C2c1cccc(OC(=O)c2ccco2)c1 (centres undefined)
    -0.105, nt
COCCn1c(C)cc(C(=O)CSc2nc(C)c(C)n2C2CCCCC2)c1C
    nt, 0.7
CSc1nc2nc(C)c(Cc3cccc(C(F)(F)F)c3)c(C)n2n1
    0.4, nt
O=C(NCC1CC1)Nc1ccccc1F
    0.42, 0.5
COC(=O)CN1C(=O)C2(C(C#N)=C(N)Oc3n[nH]c(-c4ccc5c(c4)OCO5)c32)c2ccccc21 (centres undefined)
    0.745, nt
O=C(Nc1ccccc1F)c1sccc1Oc1ccc([N+](=O)[O-])cc1F
    -1.04, nt
Fc1ccc(C2=NN(c3ccccc3)C(c3ccc(F)cc3)C2)cc1 (centres undefined)
    14, nt
CCCOc1cccc2c1CCN(Cc1ccccc1)C2=O
    0.01, 0.4
Cc1ccc2oc(-c3cccc(Br)c3)nc2c1
    0.355, 1.7
O=C1CCCS(=O)(=O)CC1
    nt, -0.25
COC(=O)N1N=C(C)CC1(O)c1ccc(Cl)cc1 (centres undefined)
    nt, 0.1
O=C(OCc1cc(Cl)cc2c1OCOC2)c1c[nH]c2ccccc12
    nt, 1
COC(=O)c1ccc(NCC(O)Cn2nnnc2-c2ccccc2)cc1 (centres undefined)
    0.45, -0.4
COc1cc2[nH]c(=O)c(C(=O)NCCN3CCNCC3)c(O)c2cc1OC
    nt, -0.45
O=C1CC(c2ccc(F)c(Br)c2)c2cc(Br)c3ccccc3c2N1 (centres undefined)
    1.56, nt
COc1cccc(-c2nn(Cc3ccccc3)cc2C(=O)N(C)CC(=O)NCc2ccco2)c1
    nt, -1
CCOc1ccc(N2C(=O)CCC2=O)cc1
    0.435, -0.7
COc1cc(C2C(C#N)=C(N)Oc3n[nH]c(C45CC6CC(CC(C6)C4)C5)c32)ccc1O (centres undefined)
    -0.625, nt
Cc1nc(N2CCC(C(N)=O)(N3CCCCC3)CC2)c2c3c(sc2n1)CCCC3
    -0.55, nt
COc1ccccc1-c1cc2nc(C)c(CCC(=O)Nc3ccc4c(c3)OCCO4)c(C)n2n1
    1.51, -0.65
COc1ccc(-c2csc(C3=C(O)CN(CC(C)(C)CN(C)C)C3=N)n2)cc1OC
    nt, -0.85
O=C(NNC(=O)c1ccc(O)cc1)OCCN1CCN(Cc2cc3ccccc3o2)CC1
    -0.135, nt
CC(C)(C)C(=O)Nc1sc2c(c1C(=O)Nc1cccc3ccccc13)CCC2
    2.88, nt
c1ccc(OCc2cc(-c3ccccc3)n[nH]2)cc1
    0.44, 0
